Screening results as filed in PubChem BioAssay.
Rce1 inhib – inhibitors of yeast Ras-converting enzyme; AID 2563; yeast membranes, quenched prenylated peptide cleavage fluorescence; calls only; actives 0.27% (n = 290,000);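 active means fall in fluorescence gain of 50% or more versus controls, with final raw signal at or below 3038400; inconclusive means same 50% fall but final raw signal above 3038400; inactive means fall in fluorescence gain under 50%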;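 further: plate controls were neutral control wells for no effect and wells lacking membranes for full effect; tested at 10 µM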
PABP polyA inh – blocks human PABP binding to poly(A) RNA. actives 1% (n = 290,000). P11940. fluorescence polarization. inhibition, % at 35 µM;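 active means 50% or more with normal probe brightness, or confirmed in later tests; inconclusive means above 50% with abnormal brightness, or retests that disagree; inactive means below 50% or failed in later tests; about a fifth of its hits are not listed in these tables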;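 further: calls also rest on retests at 20 µM and on dose response follow-up; controls were probe without protein and protein plus probe with vehicle; some compounds called inactive have numbers as strong as hits; many hits fall short of the cut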
Target sequence (P11940 whole entry, looked up): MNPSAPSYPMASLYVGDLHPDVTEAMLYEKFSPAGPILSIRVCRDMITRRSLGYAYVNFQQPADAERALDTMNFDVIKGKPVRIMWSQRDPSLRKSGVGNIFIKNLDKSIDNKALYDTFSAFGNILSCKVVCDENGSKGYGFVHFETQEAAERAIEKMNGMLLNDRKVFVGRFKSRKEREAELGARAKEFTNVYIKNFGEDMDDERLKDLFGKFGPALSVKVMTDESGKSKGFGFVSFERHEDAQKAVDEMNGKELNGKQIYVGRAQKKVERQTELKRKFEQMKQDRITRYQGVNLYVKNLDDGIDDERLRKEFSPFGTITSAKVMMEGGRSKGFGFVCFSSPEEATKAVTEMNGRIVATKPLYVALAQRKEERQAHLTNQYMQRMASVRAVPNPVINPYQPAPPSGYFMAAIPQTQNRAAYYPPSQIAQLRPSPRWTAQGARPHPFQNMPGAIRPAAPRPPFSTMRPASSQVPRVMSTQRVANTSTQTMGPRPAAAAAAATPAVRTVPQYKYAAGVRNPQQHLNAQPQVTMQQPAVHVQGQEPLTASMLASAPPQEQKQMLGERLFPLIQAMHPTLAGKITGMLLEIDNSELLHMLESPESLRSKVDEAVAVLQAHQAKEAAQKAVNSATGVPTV
MT1-MMP act inh – inhibitors of human MT1-MMP activation | P50281 | HT1080 RFP-PRO-GFP cells, GFP/RFP ratio fluorescence, overnight; percent of plate control window, DMSO zero | GFP/RFP ratio change, % at 20 µM | actives 0.061% (n = 360,000) | AID 651647;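 active means GFP/RFP ratio change of at least 30% with cell ATP level not reduced by more than half and red fluorescence within 50% of control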; further: strong numbers were not always called active
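Assay system: HT1080 cells carrying an RFP-PRO-GFP reporter | Dosing: Single dose of 20 µM compound, 1% DMSO final | Incubation: Cells overnight before dosing, compound overnight, 37 °C, 5% CO2 | Evaluation: GFP/RFP fluorescence ratio | Control set: DMSO and RFP-L50D-GFP cell wells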
eIF4H inh – inhibitors of RNA binding by human eIF4H. actives 0.94% (n = 290,000). inhibition, % at 35 µM. Q15056. eIF4H fluorescence polarization binding assay. AID 2012;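 active means 50% or more with normal probe brightness, or confirmed in later tests; inconclusive means above 50% with abnormal brightness, or retests that disagree; inactive means below 50% or failed in later tests; about a fifth of its hits are not listed in these tables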;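 further: calls also rest on retests at 20 µM and on dose response follow-up; 0% = protein and probe with vehicle and 100% = probe without protein; strong numbers were not always called active; many hits fall short of the cut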
Yeast UUG start – yeast start codon fidelity modulation; activity score, % at 18.7 µM; AID 602363; S. cerevisiae UUG-firefly luciferase reporter, luminescence/redox ratio; actives 0.13% (n = 350,000);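 active means replicate mean at a twofold rise or more, about +100% in these data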;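 further: firefly luciferase made from a UUG start codon reports start codon fidelity; reporter light over untreated wells divided by growth signal over untreated wells; some hits fall short of that in this replicate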
CSC inhib – cancer stem cell inhibition; cancer stem cell-like cells viability, luminescence; inhibition, % at 7.5 µM; actives 1.1% (n = 300,000); AID 2717;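 active means mean at 75% or more and at least half the replicates too; inconclusive means mean and replicates disagree; tested in HMLE shEcad cells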;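 further: 0% = median of negative and 100% = median of positive control wells; the first replicate is given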
HIV Env fusion – inhibitors of HIV Env-mediated cell fusion; HeLa-JRFL Env/CEM21 cell fusion, luciferase; inhibition, % at 12.3 µM; actives 1.1% (n = 360,000);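 active means mean replicate inhibition score of at least 50 and every replicate individually at or above 50; inconclusive means only one of the two criteria met; inactive means mean below 50 and not all replicates reaching 50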;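 further: 0% = plate neutral controls and 100% = maraviroc near 300 nM; one replicate is shown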
eIF4H inh retest – recorded beside eIF4H inh, whose call it bears; inhibition, %; compound at 20 µM; confirmation average;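 mean of two retest wells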
PABP polyA inh retest – second read-out of PABP polyA inh, no call of its own (marks repeat the call); inhibition, %; compound at 20 µM; confirmation repeats;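 mean of two retest wells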
MT1-MMP act inh RFP – also measured in MT1-MMP act inh; calls as there; RFP signal change, %; measured here: RFP expression control read;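 0 = vehicle wells; hits needed this value within 50% of zero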
Active calls of the source: *; i = inactive; ? = inconclusive; . = no result given. Not all compounds are listed; count on the stated rates, not on these rows.

SMILES	Rce1 inhib	PABP polyA inh	MT1-MMP act inh	MT1-MMP act inh RFP	eIF4H inh	Yeast UUG start	CSC inhib	HIV Env fusion	others
Cc1nnc(NC(=O)c2cc(S(=O)(=O)N(C)C)ccc2N2CCCC2)s1	.	.	0	1	.	-9	-4	.
COc1cccc(CNC(=O)C2CCN(S(=O)(=O)N3CC(C)CC(C)C3)CC2)c1 (stereo not given)	i	-9	3	0	-4	-12	16	22
O=C(Nc1ccccc1)c1ccc(S(=O)(=O)N2CCCC2)cc1	i	4	3	5	2	-13	-5	19
CCOc1ccc(NC(=O)CC2SC(N)=NC2=O)c([N+](=O)[O-])c1 (stereo not given)	i	5	5	0	-4	.	3	4
O=C1CC(c2ccccc2)CN1C(=O)c1cccnc1 (stereo not given)	i	-3	-1	1	-1	-20	-15	-4
C[C@H](NC(=O)c1[nH]cnc1C(=O)Nc1ccon1)c1ccccc1	.	.	8	2	.	-16	-2	-37
COc1cc(S(=O)(=O)Nc2ccccn2)ccc1F	i	0	-3	2	-6	-11	-1	-40
Cc1ccc(C(=O)NCC2CCCN2S(=O)(=O)c2ccc(C)cc2)cc1 (stereo not given)	i	.	-5	-6	.	5	.	.
O=c1nc2ccccc2c2n1CC(CN1CCN(C(c3ccccc3)c3ccccc3)CC1)N2 (stereo not given)	i	9	.	.	-8	.	-2	2
NNC(=O)c1ccc(Cn2cc(Br)cn2)cc1	i	10	-1	2	4	.	-1	6
O=S(=O)(c1ccc2c(c1)OCO2)N1CCN(c2nnnn2-c2ccccc2)CC1	i	-4	-2	-6	5	-12	.	30
O=C(c1ccco1)c1n[nH]nc1-c1ccccc1	i	11	-3	-2	-4	-11	-12	.

Two compounds drawn at random from those above:
SMILES	Rce1 inhib	PABP polyA inh	MT1-MMP act inh	MT1-MMP act inh RFP	eIF4H inh	Yeast UUG start	CSC inhib	HIV Env fusion	others
CCOc1ccc(NC(=O)CC2SC(N)=NC2=O)c([N+](=O)[O-])c1 (stereo not given)	i	5	5	0	-4	.	3	4
COc1cc(S(=O)(=O)Nc2ccccn2)ccc1F	i	0	-3	2	-6	-11	-1	-40

Returning to the listing, starting four compounds before the break.
SMILES	Rce1 inhib	PABP polyA inh	MT1-MMP act inh	MT1-MMP act inh RFP	eIF4H inh	Yeast UUG start	CSC inhib	HIV Env fusion	others
O=c1nc2ccccc2c2n1CC(CN1CCN(C(c3ccccc3)c3ccccc3)CC1)N2 (stereo not given)	i	9	.	.	-8	.	-2	2
NNC(=O)c1ccc(Cn2cc(Br)cn2)cc1	i	10	-1	2	4	.	-1	6
O=S(=O)(c1ccc2c(c1)OCO2)N1CCN(c2nnnn2-c2ccccc2)CC1	i	-4	-2	-6	5	-12	.	30
O=C(c1ccco1)c1n[nH]nc1-c1ccccc1	i	11	-3	-2	-4	-11	-12	.
COc1ccc(NC(=O)C[C@H]2C(=O)N(C3CCCCC3)C[C@@H]2c2ccccc2)cc1	.	.	2	4	.	-1	.	-6
S=C(NCCCCNC(=S)NCc1ccccc1)NCc1ccccc1	i	-6	4	-4	5	.	-5	6
CCN(C(=O)COC(=O)c1[nH]c(=O)[nH]c(=O)c1N)c1ccccc1	i	1	-1	-1	-4	-23	-9	-11
CCN(C(=O)CSc1cc(C)c2ccc(OC)cc2n1)C1CCS(=O)(=O)C1 (stereo not given)	i	-1	2	1	3	-8	-23	1
CC(C)=CCSc1nnc([C@@H](NC(=O)OC(C)(C)C)C(C)C)o1	i	1	0	2	-18	-5	-2	-64
C=CCNS(=O)(=O)c1cccc2cc(C(=O)O)c(O)cc12	i	13	-5	-1	-8	-12	-4	-14
FC(F)(F)c1ccccc1/C=N/Nc1ccccn1	i	13	-1	3	-1	.	-3	-20
CCOC(=O)c1nnn(-c2nc(OC)nc(N3CCCC3)n2)c1-c1ccccc1	i	3	1	1	-10	-21	-15	-13
CC(C)NC(=O)CCCc1c[nH]c2ccccc12	i	-6	1	1	4	-2	-2	9
COC(=O)Cc1cc(=O)n2[nH]c(C)cc2n1	i	6	-6	4	1	-4	0	-64
COC(=O)c1ccc(NC(=O)Cn2c(-c3nonc3N)nc3ccccc32)cc1	i	7	3	2	-9	.	9	-5
Cc1ccc(N2C(=O)C(CN3CCCC3)C2c2ccccc2)cc1 (stereo not given)	.	-8	-2	-1	-11	.	-11	17
Cc1occc1C(=O)N1CCN(Cc2ccccc2)CC1	i	15	-6	3	7	4	3	.
CC(C1CCN(Cc2cn(C)nc2-c2cccc(Cl)c2)CC1)N1CCOCC1 (stereo not given)	i	1	2	-1	7	.	4	12
Cc1c(Cl)cccc1NC(=O)Nc1c(C)n(C)n(-c2ccccc2)c1=O	i	-12	0	1	1	-1	-12	-18
CC(=O)Nc1ccc(C(=O)N(C)C(C(=O)Nc2ccccc2)c2ccccn2)cc1 (stereo not given)	i	3	4	8	-1	.	-13	-2
CCCCNc1ccc2c3c(cccc13)C(=O)N(CCCC)C2=O	i	?	-143	-2	?	.	.	15
CN(C(=O)c1cccc(NC(=O)Cc2ccc(NC(=O)C3CCCN(C(=O)C4CCCC4)C3)cc2)c1)C1CC1 (stereo not given)	.	.	9	6	.	4	.	6
Cc1cc2nn(-c3ccc(Cl)cc3)nc2cc1N	i	-3	0	-1	4	.	-8	-193
O=C(Nc1ccccn1)c1cc2ccccc2cc1O	i	8	-3	1	10	7	6	.
CCOC(=O)N1CCC(N2C(=O)c3ccccc3C2Nc2cc(C(=O)OC)cc(C(=O)OC)c2)CC1 (stereo not given)	i	2	2	0	-8	14	3	-54
O=C(COc1ccc(Cl)cc1Cl)c1ccc[nH]1	i	19	-4	-1	52	-17	-2	6	eIF4H inh retest=22;PABP polyA inh retest=26
Cn1c(CNC(=O)CNS(=O)(=O)c2ccc(Cl)cc2)cc(=O)n(C)c1=O	i	2	-6	0	-10	-21	0	-6
CC(C)Cc1oc(C(=O)O)cc1CN1CCOCC1	i	1	-1	-2	1	.	-10	0
O=C(NC1CC1)c1cccc(NC(=O)C2CCCC2)c1	.	.	3	2	.	-9	.	-23
Cc1cccc(N2C(=O)c3ccccc3C2=O)n1	i	10	0	4	5	-2	-13	0
CCOC(=O)C1=C(C)N=C2c3ccccc3C(=O)C2C1c1ccc(Br)cc1 (stereo not given)	i	0	.	.	2	.	8	9
COC(=O)c1ccc(C(=O)OC)c(NC(=S)N2CCOCC2)c1	i	-3	0	1	-10	.	6	-6
COc1ccccc1C(CNC(=O)COc1ccccc1C)N1CCCC1 (stereo not given)	i	.	2	1	.	.	-10	-1
CN(C)S(=O)(=O)c1ccc(Cl)c(C(=O)Nc2ccccc2[N+](=O)[O-])c1	i	-5	3	2	0	.	11	9
OC(CN1CCCCC1)Cn1c2ccccc2c2cc(Br)ccc21 (stereo not given)	i	2	1	-6	-5	6	16	7
CN1CCN(CCCNC(=O)CCC(=O)N2CCOc3ccccc32)CC1	i	9	6	4	-1	-16	-9	-15
Cc1[nH]c(-c2ccc(F)cc2)cc1C(=O)N1CCN(c2cccc(Cl)c2)CC1	i	6	5	1	-4	-8	24	9
O=C(CSc1nc2scc(-c3ccco3)c2c(=O)n1-c1ccccc1)NCC1CCCO1 (stereo not given)	i	30	-11	6	64	-10	-4	27	eIF4H inh retest=-5;PABP polyA inh retest=4
CC1(C)Cc2c(C#N)c(SCCC#N)nc(N3CCOCC3)c2CS1	i	-2	4	1	-9	23	-3	4
CCCn1c(NC(=O)C2COc3ccccc3O2)nc2ccccc21 (stereo not given)	i	7	10	-6	9	-9	16	-44
Cc1cc(NC(=O)CS(=O)(=O)c2cn(C)c3ccccc23)no1	i	-3	-1	-1	-3	-13	-11	14
CC(=O)Nc1cccc(C(=O)Nc2ccccc2N2CCOCC2)c1	i	-13	1	-9	-2	-5	18	25
CCC(O)(CC)C(=O)NN(C(=O)CCl)c1ccccc1	i	-16	-1	1	-13	.	6	61*
Cc1cc(Nc2ccc(F)cc2F)n2ncnc2n1	i	8	-2	1	6	-10	-22	-9
COc1ccc(CCN2CC(C(=O)NCCc3cn[nH]c3)CCC2=O)cc1 (stereo not given)	i	12	.	.	-1	-23	11	-2
Cc1oc(-c2ccccc2Cl)nc1CSCC(=O)NC1CC1	i	-2	-1	0	3	-14	0	-26
COC(=O)c1cccc(CSc2nc(-c3ccccc3)c(C#N)c(=O)[nH]2)c1	i	15	1	5	-2	-9	33	-7
Cn1cc(C(C[N+](=O)[O-])c2ccccc2)c2ccccc21 (stereo not given)	i	8	-5	-6	-5	-4	71	18
O=C(N/C(=C\c1ccccc1Cl)C(=O)N1CCOCC1)c1ccc([N+](=O)[O-])cc1	i	-1	1	4	0	.	-14	3
O=C1/C(=C\c2ccc3c(c2)OCO3)CCC/C1=C/c1ccc2c(c1)OCO2	i	3	-22	-13	31	.	28	.
COc1cc(C(=O)NCCOc2cccc3cccnc23)cc(OC)c1OC	.	?	-3	1	-4	.	42	9
COc1ccc(NC(=O)C2CC(c3ccc(Cl)cc3)=NO2)cc1OC (stereo not given)	.	6	4	-2	0	-14	5	-10
CCN(CC)S(=O)(=O)c1ccc(N2CC(C(=O)N3CCOCC3)CC2=O)cc1 (stereo not given)	.	.	-1	4	.	-7	-36	.
CCCOC(=O)c1c(NC(=O)/C=C/c2cnn(C)c2C)sc(C(=O)OC)c1C	i	-1	-1	-5	1	-17	-3	.
CCOC(=O)CNC(=O)Cc1ccc(Cl)cc1	i	0	-1	3	-2	.	-6	-11
CSc1oc(-c2ccccc2)nc1S(=O)(=O)c1ccc(F)cc1	i	-11	-4	-7	0	.	4	.
NC(N)=S	.	.	-1	1	.	-17	.	-14
Cc1[nH]c(=O)[nH]c(=O)c1/C=C/C(=O)OCC(C)C	i	61*	1	-1	?	-11	3	29	PABP polyA inh retest=57*
CNc1cncc(-c2ccc(OC)cc2OC)n1	.	.	0	4	.	-10	.	15
CCCc1nnc(NC(=O)CSc2nnc(-c3ccco3)n2C)s1	i	5	2	2	-5	-5	-12	2
NNC(=O)c1ccccc1OCCOc1ccccc1	i	1	-5	-5	5	-16	.	17
CCCc1cc(=O)[nH]c(Nc2ccc3c(c2)OCCO3)n1	i	-1	10	2	5	-30	-4	-5
Cc1cc(C)n(-c2nc(NCCCO)c3c4c(sc3n2)CCCC4)n1	i	-16	9	3	1	-16	20	.
O=c1[nH]c(SCc2ccccc2Cl)nc2c1CCC2	i	-5	4	1	6	-13	-12	6
More records
SMILES	Rce1 inhib	PABP polyA inh	MT1-MMP act inh	MT1-MMP act inh RFP	eIF4H inh	Yeast UUG start	CSC inhib	HIV Env fusion	others
Cc1ccc(SCC(=O)N(C)C2CCS(=O)(=O)C2)cc1 (stereo not given)	i	-13	-1	3	1	.	-7	-7
CCOC(=O)C1(Cc2ccc(Cl)cc2)CCN(C(=O)c2sc(C)nc2C)CC1	i	-10	-8	-15	-1	.	0	37
COCCCn1c(=NC(C)=O)c(C#N)cc2c(=O)n3cccc(C)c3nc21	i	55*	-1	2	107*	-19	4	-3
C=CCSc1nc(O)c(CC)c(=O)n1C(C)CC (stereo not given)	i	-9	3	4	-6	-11	.	5
COc1cc2[nH]c(=O)n(CCC(=O)N3CCN(Cc4ccc5c(c4)OCO5)CC3)c(=O)c2cc1OC	i	-1	4	-2	24	.	1	22
Cn1cc(CN2C[C@H]3CC[C@H]2C3)c(-c2ccccc2F)n1	i	4	-1	1	-2	-26	-14	-16
O=C(O)c1cccc(Nc2ccnc(Nc3cccc(C(=O)O)c3)n2)c1	i	22	3	4	5	-46	.	59*
